Compound activity deposited in PubChem BioAssay by National Center for Advancing Translational Sciences (NCATS).
gsp antagonist = qHTS for Antagonists of gsp, the Etiologic Mutation Responsible for Fibrous Dysplasia/McCune-Albright Syndrome: qHTS. AID 624288, 2012. gsp-mutant cells, cAMP HTRF, 30 min; control for the full effect not named in the record. 0.4% of 340,000 active. Potency, µM (titrated, usually from 76.9 µM), for the others: top-dose activity change, negative = inhibition, most hits filed as inhibitors; active = falling curve of any shape with a large fitted effect; inconclusive = falling curve, mostly with a smaller effect; inactive = flat or rising curve; cell line not stated here;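 note: intracellular cAMP measured with PDE inhibitor Ro 20-1724 present during compound exposure; potency is the fitted concentration of half-maximal effect; % is set by controls: 0 for no effect and ±100 for the full control effect; nearly all actives have a fitted effect of over 65% in size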
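G418-selected cells were plated in DMEM/10% FBS for 16-24 h at 37C, then treated with compounds plus the PDE inhibitor […] (300 uM solution added) for 30 min at 37C. Intracellular cAMP was measured by HTRF after 30 min lysis at room temperature.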
ClpP mod = qHTS Assay for Activators of ClpP; purified B. subtilis ClpP, FRET peptide cleavage, 20 min; AID 651965, 2013; ATP-dependent Clp protease proteolytic subunit (Bacillus subtilis (strain 168)), P80244; Potency, µM (series often up to 57.5 µM), for inactives: top-dose activity change, negative = active; 1.9% of 340,000 active; active = well fitted falling curve with a large enough effect; inconclusive = small, poorly fitted or top-dose-only effect; inactive = no such curve, though single readings can be large or run the other way; note: potency is the fitted concentration of half-maximal effect; the source files actives as falling curves though it sought activators and does not explain the sign; nearly all actives have a fitted effect of over 65% in size; many hits overshoot -100%
Target sequence (P80244 whole entry, looked up): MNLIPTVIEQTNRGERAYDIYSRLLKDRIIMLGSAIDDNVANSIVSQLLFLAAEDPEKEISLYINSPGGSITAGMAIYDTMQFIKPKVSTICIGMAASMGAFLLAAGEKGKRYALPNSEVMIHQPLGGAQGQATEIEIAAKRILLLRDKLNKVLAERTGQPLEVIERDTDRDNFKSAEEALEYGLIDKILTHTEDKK
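FRET quenching reversal measured ClpP activation: 10 microg/mL B. subtilis ClpP at pH 8 with the FRET-FV decapeptide, read at 430 nm after 320 nm excitation. The 20-min minus 0-min signal was scaled between DMSO/no-enzyme wells and ADEP (5.8 microM final).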
TRPV1 PAM = HTS Assay for Compounds that Act as Potentiators of the Vanilloid Receptor 1; Transient receptor potential cation channel subfamily V member 1 (Homo sapiens), Q8NER1; TRPV1-expressing cells, Fluo-8 calcium influx, capsaicin EC20 potentiation; host cell line not named in the record; control for the full effect not named in the record; potentiation, % at 8.33 µM; 0.02% of 320,000 active; AID 540277, 2011; active means potentiation above 80%; inconclusive means 30% to 80%; inactive means below 30%; note: 0% is about no effect
Target sequence (Q8NER1 whole entry, looked up): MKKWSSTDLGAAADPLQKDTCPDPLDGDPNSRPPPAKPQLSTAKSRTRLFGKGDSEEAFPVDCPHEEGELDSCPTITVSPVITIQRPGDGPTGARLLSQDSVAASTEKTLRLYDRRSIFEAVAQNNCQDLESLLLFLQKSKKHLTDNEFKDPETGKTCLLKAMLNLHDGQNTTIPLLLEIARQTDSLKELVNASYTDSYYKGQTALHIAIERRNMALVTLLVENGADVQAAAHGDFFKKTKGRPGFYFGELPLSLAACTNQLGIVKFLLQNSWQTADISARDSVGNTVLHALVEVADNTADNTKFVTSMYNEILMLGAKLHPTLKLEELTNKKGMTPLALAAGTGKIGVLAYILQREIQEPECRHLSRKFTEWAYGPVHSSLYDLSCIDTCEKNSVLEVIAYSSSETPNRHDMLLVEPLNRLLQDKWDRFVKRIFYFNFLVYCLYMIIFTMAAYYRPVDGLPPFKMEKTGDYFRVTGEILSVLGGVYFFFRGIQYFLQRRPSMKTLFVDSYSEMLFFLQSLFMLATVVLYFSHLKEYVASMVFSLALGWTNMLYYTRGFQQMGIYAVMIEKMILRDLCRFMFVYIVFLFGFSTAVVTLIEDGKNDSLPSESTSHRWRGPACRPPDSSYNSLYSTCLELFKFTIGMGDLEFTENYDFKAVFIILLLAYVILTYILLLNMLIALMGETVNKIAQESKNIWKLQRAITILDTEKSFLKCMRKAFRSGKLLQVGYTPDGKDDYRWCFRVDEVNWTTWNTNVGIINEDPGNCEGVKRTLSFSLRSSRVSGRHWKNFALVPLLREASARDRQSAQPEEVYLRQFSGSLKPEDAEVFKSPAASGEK
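Cells expressing TRPV1 were dye-loaded with Fluo-8 and read kinetically: 10 s baseline, 3 min after compound (agonist portion), then 2 min after EC20 capsaicin (allosteric enhancer portion). Calcium-bound dye fluorescence at 480/520 nm.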
D2 PAM = Beta-Arrestin HTS for Positive Allosteric Modulators of the Human D2 Dopamine Receptor: Potentiators; potentiation, % (concentration not given with the values); D(2) dopamine receptor (Homo sapiens), P14416; 0.23% of 360,000 active; AID 624464, 2012; DiscoveRx D2 beta-arrestin cells, luminescence, 90 min; 100% = 57 uM dopamine signal; active = potentiation of 50% or more; inconclusive = 30% to 50%; inactive = 30% or less;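 note: compound concentration not given in the record; tested on top of an EC20 dose of dopamine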
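PathHunter beta-arrestin assay in DiscoveRx D2 cells. Compounds were added with an EC20 of dopamine (50 nM final) for 90 min at 37 deg C. Luminescence was read 1 h after detection reagent, with 57 uM dopamine as the EC100 control.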
Sfp inh = qHTS Assay for Inhibitors of Bacillus subtilis Sfp phosphopantetheinyl transferase (PPTase); 4'-phosphopantetheinyl transferase ffp (Bacillus subtilis), Q9F4F7; Biochemical Sfp PPTase activity, qHTS; Potency, µM, inactives show max response, negative = inhibition, hits mostly inhibitors; 3.5% of 310,000 active; active = well fitted inhibition curve with a large enough effect; inconclusive = small, poorly fitted or top-dose-only effect, or another doubt; inactive = no such curve, though single readings can be large or run the other way;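 note: the enzyme is Sfp with the accession as filed and its product quenches rhodamine fluorescence; potency is the fitted concentration of half-maximal effect; 0% = enzyme reaction without inhibitor and -100% = no enzyme wells; top concentration of the series not given in the record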
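Sfp 15 nM + cpd, 15 min RT; start w/ rhodamine-CoA 5 uM, BHQ-2-YbbR 12.5 uM (final); 50 mM Hepes pH 7.6, 10 mM MgCl2, 0.01% NP-40, 0.01% BSA; read 525/598 nm at 0 and 30 min.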
gsp ag = qHTS for Agonist of gsp, the Etiologic Mutation Responsible for Fibrous Dysplasia/McCune-Albright Syndrome: qHTS. gsp mutant cells, cAMP HTRF, 30 min; control for the full effect not named in the record. Potency, µM (highest dose often 76.9 µM), for the others: at the top dose activation (cAMP increase), usual class: activators. 0.13% of 340,000 active. AID 624287, 2012; active = well fitted activation curve with a large enough effect; inconclusive = small, poorly fitted or top-dose-only effect, or another doubt; inactive = no such curve, though single readings can be large or run the other way; cell line not stated here;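 note: phosphodiesterase inhibitor Ro 20-1724 added with compounds to block cAMP breakdown; potency is the fitted concentration of half-maximal effect; nearly all actives have a fitted effect of over 60% in size; about a fifth of the inactives were tested at one dose only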
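Cells stably selected in G418 were plated at 2000/well, grown 16-24 hr, then given compounds in DMSO with the PDE inhibitor […] (300 uM solution added) for 30 min at 37C; cAMP was read by HTRF.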
Menin-MLL FL inh = qHTS Assay for Inhibitors Targeting the Menin-MLL Interaction in MLL Related Leukemias: Competition With Fluorescein Labeled MLL-derived Peptide. Fluorescence polarization, fluorescein-MLL peptide displacement from menin. FP activity change, % at 61.4 µM. 290,000 tested, under 10 active. AID 1766, 2009; inconclusive = falling polarisation curve, or a change in total fluorescence; inactive = total fluorescence flat and polarisation flat or rising; no compound was filed as active; the % refers to the polarisation; negative = inhibition;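 note: % of control where 0% means no effect; inhibitors lower the polarisation; unlabelled MLL peptide was the positive control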
* hit, by the source's call; ? = inconclusive; . = not tested or not shown; & = joins results of further samples; [ ] = another dose, or the depositor's remark. Outcome played no part in choosing rows; 5.1% or so of the library scored in one or more.

Results follow in this order: gsp antagonist, ClpP mod, TRPV1 PAM, D2 PAM, Sfp inh, gsp ag, Menin-MLL FL inh
> CSc1ccc(NC(N)=S)cc1
    6%, -1.0%, 4, -6, 5%, -28%, -0.7
> COC(=O)c1ccc(N2NC(=O)/C(=C/c3cc(OC)c(O)c(OC)c3)C2=O)cc1
    -20%, ., -11, -2, -28%, ?, ?
> COC(=O)c1ccc(Nc2nc(N3CCOCC3)nc(N3CCOCC3)n2)cc1
    -10%, -2.5%, 17, -3, 9%, 25%, .
> CC1=C(C(=O)OCc2ccccc2)C(c2cccs2)N2C(=O)CCSC2=N1 (stereo unspecified)
    -2%, ., -3, 1, 7%, 12%, -2.0
> Cc1c(C(=O)N2CCN(C(=O)c3ccco3)CC2)sc2nc(-c3ccc(F)cc3)cn12
    -11%, 1.6%, -4, -10, -10%, 1%, 0.3
> CN(C)CCNC(=O)/C(=C/c1ccc(-c2ccc(Cl)cc2)o1)NC(=O)c1ccccc1
    4%, 16µM*, 3, -4, -31%, -36%[inhibitor], 2.4
> COc1cc(/C=N/OCC(=O)NC2CCCCC2)ccc1OCc1ccccc1
    -16%, -1.8%, 0, -2, -11%, -43%[inhibitor], .
> Cc1cc(C(=O)OCC(N)=O)c(C)n1-c1ccccc1
    6%, -22%, -10, -2, -13%, -4%[15.4 µM], 2.6
> OC(COc1ccc(F)cc1)CN1CCN(CC(O)COc2ccc(F)cc2)CC1 (stereo unspecified)
    10%, ., -4, -18, 0%, 8%, 0.2
> O=C(NC(=S)Nc1cccc(C(F)(F)F)c1)c1csnn1
    -10%, ., -5, -14, ?, -6%[15.4 µM], 2.3
> CC1=C(C#N)c2nc(N)c(C#N)c(C)c2/C1=C\c1ccc(-c2ccccc2C(=O)O)o1
    -21%, ., 4, 7, ?, -5%[15.4 µM], 0.8
> C=CCN1c2ccccc2[C@]23C[C@@H](C(=O)OC)N(C(=O)c4cccs4)C2=NC(C(=O)OC)=C(C(=O)OC)[C@H]13
    -14%, -2.6%, 19, -8, 11%&10%, -48%[inhibitor], 1.4[11.7 µM]
> CC(C)(C)C1c2[nH]c3ccccc3c2CCN1Cc1cccc(OCCO)c1 (stereo unspecified)
    5%, ., -13, -4, 16%, -22%, -4.6
> CCCCC(=O)N(c1ccc(OCC)cc1)C1C=CS(=O)(=O)C1 (stereo unspecified)
    -5%, -1.5%, -10, -9, 14%, -20%, 6.2
> Cc1ccc(F)cc1NC(=O)C1CCCN(c2ncccn2)C1 (stereo unspecified)
    15%, -23%, 25, -5, 15%, -36%[inhibitor], 4.0
> CCN(CC(=O)Nc1c(F)cccc1F)C(=O)C1CC(=O)N(c2ccc3c(c2)OCCO3)C1 (stereo unspecified)
    5%, -1.9%, -8, -9, ., -1%[15.4 µM], .
> CC(=O)Nc1ccc(S(=O)(=O)Nc2ccc(=O)n(Cc3ccc(Cl)c(Cl)c3)c2)cc1
    3%, -0.1%, 7, 1, 11%, 5%, 0.1
> CCNc1ccc(C(=O)OCC)cc1NC(=O)c1cccc(N(C)C)c1
    14%, -13%, 5, -12, 10%, 1%, 2.4
> NC(=O)c1nsc(C(=O)N(c2ccc3c(c2)OCO3)C(C(=O)NCC2CCCO2)c2ccc(F)cc2)c1N (stereo unspecified)
    -6%, -0.5%, 14, -5, -12%, -2%[15.4 µM], -0.7
> COc1ccc(NC(=O)c2cc3c(CO)cnc(C)c3oc2=Nc2cc(OC)cc(OC)c2)cc1
    8%, ., 16, -3, 5%, 7%, -12

Next part, overlapping the part above by 2 compounds.
Results follow in this order: gsp antagonist, ClpP mod, TRPV1 PAM, D2 PAM, Sfp inh, gsp ag, Menin-MLL FL inh
> NC(=O)c1nsc(C(=O)N(c2ccc3c(c2)OCO3)C(C(=O)NCC2CCCO2)c2ccc(F)cc2)c1N (stereo unspecified)
    -6%, -0.5%, 14, -5, -12%, -2%[15.4 µM], -0.7
> COc1ccc(NC(=O)c2cc3c(CO)cnc(C)c3oc2=Nc2cc(OC)cc(OC)c2)cc1
    8%, ., 16, -3, 5%, 7%, -12
> CCCCC(O)(CCCC)C(=O)NN(C(=O)OCC)c1ccccc1
    8%, 0.7%, -13, -15, 8%, 0%, 0.4
> CCCCn1c(SCC(=O)NCc2ccc3c(c2)OCO3)nnc1C(CC)N(C)C (stereo unspecified)
    9%, -4.8%, -4, -5, ., -40%[inhibitor], .
> O=C(COC(=O)c1ccc(Br)cc1)NCC1CCCO1 (stereo unspecified)
    2%, 1.0%, ., -22, ., -4%[15.4 µM], .
> CCOP(=O)(O)c1cccc(OCCOCCOc2cccc(P(=O)(O)OCC)c2)c1
    2%, 0.0%, 10, -4, -1%, -69%[inhibitor], 0.2
> CC1CC(C)CN(C(=O)C2CCN(S(=O)(=O)c3ccc4c(c3)CC(C)N4C(=O)C3CC3)CC2)C1 (stereo unspecified)
    -21%, 1.6%, -7, -2, 2%, 26%, -0.3
> O=C1CSC(c2ccccc2)N1c1ccc(F)cc1F (stereo unspecified)
    8%, -1.5%, 18, -8, 15%, 4%[15.4 µM], 2.3
> Cc1nc2ccc(C(=O)N3CCN(c4ccccn4)CC3)cc2s1
    -1%, -6.6%, -19, -7, 5%, -2%, 1.2
> O=S(=O)(NC1=NCCCCC1)c1ccc(F)cc1F
    7%, -1.3%, ., -4, ., ?, .
> O=C(OCC(=O)N(C1CCCCC1)C1CCCCC1)c1ccc(O)cc1
    -8%, ., -8, 4, 5%, 2%, -10
> CCOC(=O)C1=C(C)OC(=Cc2ccc(OC)cc2)C1=O
    ., -0.9%, ., -5, ., ?, .
> Cc1onc(-c2ccccc2)c1-c1csc(N/N=C/c2ccccc2Cl)n1
    2%, ., ., -4, 6%, -2%, 1.8
> Cc1nc(NCCOc2ccccc2)sc1C(=O)Nc1ccccc1
    -15%, 0.2%, 4, -12, -5%, -24%, 0.4
> CCCCCn1c(N)c(-c2nc3ccccc3o2)c2c([N+](=O)[O-])nn(CC)c(=O)c21
    -11%, -1.5%, 13, -16, 10%, -53%[inhibitor], -5.6
> COC(=O)c1c(NC(=O)C(=O)N2CCOCC2)sc2c1CCC2
    -4%, -0.8%, -11, -2, -11%, -34%[inhibitor], 0.9
> Cc1ccc(C)c(Nc2ncnc3nc[nH]c23)c1
    9%, -3.9%, ?, -11, 19%, -9%, -0.5
> Cc1cc(C)n2nc(-c3ccc(Br)cc3)cc2n1
    -8%, 4.9%, -5, -4, 0%, 20%, -1.5
> COc1cc(C=O)ccc1OCCOCCOc1ccccc1Cl
    4%, -2.5%, 6, -6, -11%, 14%, 6.1
> CCC(C)n1cnc2c(c1=O)c1nc3ccccc3nc1n2Cc1ccc(OC)cc1 (stereo unspecified)
    -21%, -21%, -3, -22, 0%, 6%, 0.1
> COC(=O)c1cc2sccc2n1CC(=O)Nc1cccc(SC)c1
    6%, 4.1%, 16, -22, 15%, -4%, 2.5
> COC(=O)c1sccc1NC(=S)N1CCC(C)CC1
    -32%, 1.6%, 7, 16, 12%, 2%, 1.3

Laid out differently: 3 of the compounds above.
compound: O=C1CSC(c2ccccc2)N1c1ccc(F)cc1F (stereo unspecified)
  gsp antagonist: 8% | ClpP mod: -1.5% | TRPV1 PAM: 18 | D2 PAM: -8 | Sfp inh: 15% | gsp ag: 4%[15.4 µM] | Menin-MLL FL inh: 2.3

compound: Cc1nc2ccc(C(=O)N3CCN(c4ccccn4)CC3)cc2s1
  gsp antagonist: -1% | ClpP mod: -6.6% | TRPV1 PAM: -19 | D2 PAM: -7 | Sfp inh: 5% | gsp ag: -2% | Menin-MLL FL inh: 1.2

compound: O=S(=O)(NC1=NCCCCC1)c1ccc(F)cc1F
  gsp antagonist: 7% | ClpP mod: -1.3% | TRPV1 PAM: . | D2 PAM: -4 | Sfp inh: . | gsp ag: ? | Menin-MLL FL inh: .

Next results follow.
Molecule	gsp antagonist	ClpP mod	TRPV1 PAM	D2 PAM	Sfp inh	gsp ag	Menin-MLL FL inh
O=C(N1CCCCCC1)N1CCN(S(=O)(=O)c2cccc([N+](=O)[O-])c2)CC1	-7%	-1.3%	.	9	.	-18%	.
COc1ccc(/C=C(\NC(=O)c2cccs2)C(=O)Nc2ccc(C)cc2)cc1OC	6%	81%	10	-5	?	-1%[15.4 µM]	2.3
COc1cc([N+](=O)[O-])c2ncsc2c1	3%	1.1%	20	2	?	-2%[15.4 µM]	-1.2
COC(=O)C(NC(=O)c1ccccc1)c1ccccc1 (stereo unspecified)	8%	1.0%	-6	-2	18%	9%	0.3
CSc1ccc(CCNC(=O)CCc2nnc3ccc(N4CCCCC4)nn23)cc1	3%	-2.5%	-12	-6	10%	21%	0.9
Cc1cc(C)c2oc(-c3cccc(NC(=O)c4ccc(F)cc4)c3)nc2c1	-6%	1.3%	-5	-2	2%	-8%	1.4
CC(C)(C)c1ccc(NC(=O)c2c(F)cccc2Cl)cc1	-21%	1.2%	2	-10	13%	-72%[inhibitor]	-2.8
Cc1ccc(OCCn2cc(/C(N)=N/O)c3ccccc32)cc1C	-2%	-5.7%	6	?	1%	-32%[inhibitor]	6.1
O=C(c1cc(COc2cccc(C(F)(F)F)c2)on1)N1CCC(c2ccccc2)CC1	-4%	1.2%	-5	19	10%	-7%	.
O=C(CN1CCN(c2nc(-c3ccccc3)cs2)CC1)NNC(=O)c1ccc(Br)cc1	-9%	0.2%	4	-10	12%	0%	-1.1
CN1CCN(c2ccccc2NC(=O)c2cccc([N+](=O)[O-])c2)CC1	-2%	0.0%	?	-7	9%	-17%	-4.0
